Compound activity (PubChem)
NOMO-1 viab – NOMO-1 AML cell viability reduction, primary screen, STK33 inhibitor project, CellTiter-Glo luminescence. NOMO-1 AML viability, 72 h. inhibition, % (test concentration not listed). 37,000 tested, 7.5% active. AID 2330, 2010;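 active means most replicates above 80%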;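 further: wells of about 30 µL received 25 nL stock; 0% = median of vehicle wells and 100% = reference inhibitor level; the first replicate is given; inactives centre near 10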
Starred values were filed as active, the others as inactive. A portion of the library (hit frequency here may not be typical).

Cc1cc(C)n2nc(SCC(=O)Nc3ccccc3[N+](=O)[O-])nc2n1
- NOMO-1 viab: 4

CNC[C@H]1Oc2ccc(NC(=O)Nc3cccc4ccccc34)cc2CC(=O)N([C@@H](C)CO)C[C@H]1C
- NOMO-1 viab: 30

C[C@@H]1CN([C@@H](C)CO)C(=O)c2cccc(NS(=O)(=O)c3ccc(F)cc3)c2O[C@H]1CN(C)S(=O)(=O)c1ccc(Cl)cc1
- NOMO-1 viab: 8

COc1ccc(CN2C(=O)C(O)(CC(=O)c3cccnc3)c3ccccc32)cc1OC (centres undefined)
- NOMO-1 viab: 106*

Cc1cc(Br)ccc1OCC(=O)Nc1ccccc1[N+](=O)[O-]
- NOMO-1 viab: 29

Cc1nnc(SCC(=O)Nc2ccc(Br)cc2)n1-c1ccccc1
- NOMO-1 viab: 9

COc1ccccc1C(=O)Nc1ccc2c(c1)nc(CCNC(C)=O)n2C
- NOMO-1 viab: 9

Cc1noc(C)c1NC(=O)N(C)C[C@H]1Oc2ccc(NS(C)(=O)=O)cc2C(=O)N([C@H](C)CO)C[C@H]1C
- NOMO-1 viab: -3

C[C@H]1[C@H](C)CC[C@]2(C(=O)O)CC[C@]3(C)C4=CCC5C(C)(C)[C@@H](O[C@@H]6O[C@H](C(=O)O)[C@@H](O)[C@H](O)[C@H]6O)CC[C@]5(C)C4CC[C@@]3(C)[C@H]12 (some centres undefined)
- NOMO-1 viab: 31

Cc1onc(-c2ccccc2Cl)c1C(=O)Nc1ccc(S(=O)(=O)Nc2nccs2)cc1
- NOMO-1 viab: 10

CN(CC(=O)Nc1cccc(F)c1)S(=O)(=O)c1ccccc1
- NOMO-1 viab: 26

C[C@H](CO)N1C[C@H](C)[C@H](CN(C)C(=O)Nc2cccc3ccccc23)Oc2c(NC(=O)c3ccncc3)cccc2C1=O
- NOMO-1 viab: 7

CCOC(=O)C1CCCN(S(=O)(=O)c2cccc3cccnc23)C1 (centres undefined)
- NOMO-1 viab: 14

COc1ccc(CCNC(=O)C2CCCCC2)cc1OC
- NOMO-1 viab: -16

C[C@@H]1CN([C@@H](C)CO)C(=O)c2cccc(NC(=O)Nc3ccc(F)cc3)c2O[C@H]1CN(C)Cc1ccc(-c2ccccc2)cc1
- NOMO-1 viab: 71

CC(C)NC(=O)Nc1ccc2c(c1)C(=O)N([C@@H](C)CO)C[C@H](C)[C@H](CN(C)C(=O)NC1CCCCC1)O2
- NOMO-1 viab: 18

C[C@@H]1CCCCO[C@H](CN(C)Cc2ccc(C(=O)O)cc2)[C@@H](C)CN([C@H](C)CO)C(=O)c2cc(NC(=O)c3ccccc3)ccc2O1
- NOMO-1 viab: 0

C[C@@H]1CCCCO[C@@H](CN(C)S(=O)(=O)c2ccc(F)cc2)[C@@H](C)CN([C@H](C)CO)C(=O)c2cc(NS(=O)(=O)c3ccccc3)ccc2O1
- NOMO-1 viab: 12

Cc1ccc(S(=O)(=O)N(C)C[C@H]2Oc3ccc(NC(=O)Nc4ccccc4)cc3C(=O)N([C@H](C)CO)C[C@@H]2C)cc1
- NOMO-1 viab: 25

CN(C)CCNc1nc2c(c(=O)n(C)c(=O)n2C)n1Cc1ccccc1Cl
- NOMO-1 viab: 15

Cc1noc(C)c1NC(=O)Nc1ccc2c(c1)C(=O)N([C@H](C)CO)C[C@@H](C)[C@H](CN(C)C(=O)NC1CCCCC1)O2
- NOMO-1 viab: 29

C[C@@H]1CN([C@H](C)CO)C(=O)c2cc(NC(=O)CCCN(C)C)ccc2O[C@@H]1CN(C)S(=O)(=O)c1ccc(Cl)cc1
- NOMO-1 viab: -3

CC(C)(C)C(=O)CSc1nnc(-c2ccco2)o1
- NOMO-1 viab: -23

N#CC1=C(N)C(C#N)=c2s/c(=C/c3cccc(F)c3)c(=O)n2C1c1cccc(F)c1 (centres undefined)
- NOMO-1 viab: 116*

C[C@H]1CN([C@@H](C)CO)C(=O)Cc2cc(NS(=O)(=O)c3cn(C)cn3)ccc2O[C@@H]1CN(C)C(=O)Nc1ccc2c(c1)OCO2
- NOMO-1 viab: -6

COc1ccc(NC(=O)Nc2ccc3c(c2)C(=O)N([C@H](C)CO)C[C@H](C)[C@H](CN(C)C(=O)Nc2cccc4ccccc24)O3)cc1
- NOMO-1 viab: 25

CNC[C@@H]1Oc2ccc(NS(C)(=O)=O)cc2C(=O)N([C@@H](C)CO)C[C@H]1C
- NOMO-1 viab: 1

CC(C)NC(=O)N(C)C[C@@H]1Oc2ccc(N(C)C)cc2C(=O)N([C@@H](C)CO)C[C@H]1C
- NOMO-1 viab: 0

COc1ccc(CN(C)C[C@@H]2Oc3ccc(NC(=O)CCCCCC(=O)Nc4ccccc4N)cc3CC(=O)N([C@@H](C)CO)C[C@@H]2C)cc1
- NOMO-1 viab: 127*

Cc1ccc(N(C(C)C(=O)Nc2ccccc2Br)S(C)(=O)=O)cc1 (centres undefined)
- NOMO-1 viab: 28

C[C@H](CO)N1C[C@H](C)[C@@H](CN(C)C(=O)Nc2ccccc2)Oc2ccc(NC(=O)C3CC3)cc2C1=O
- NOMO-1 viab: 9

C[C@H](CO)N1C[C@H](C)[C@@H](CN(C)C(=O)Nc2cccc3ccccc23)Oc2ccc(NS(=O)(=O)c3ccc(Cl)cc3)cc2C1=O
- NOMO-1 viab: -13

COc1ccc(-c2cc(=O)c3c(OC)c(OC)c(OC)c(OC)c3o2)cc1
- NOMO-1 viab: 22

C=C(C(=O)O)C(CCCCCCO)C(=O)O (centres undefined)
- NOMO-1 viab: 7

COc1ccc(NC(=O)N(C)C[C@@H]2Oc3ccc(NS(=O)(=O)c4ccc(Cl)cc4)cc3CC(=O)N([C@H](C)CO)C[C@@H]2C)cc1
- NOMO-1 viab: 5

C[C@@H]1CCCCO[C@@H](CN(C)C(=O)NC2CCCCC2)[C@@H](C)CN([C@H](C)CO)C(=O)c2cc(NC(=O)Nc3ccc(F)cc3)ccc2O1
- NOMO-1 viab: 19

COc1ccc(S(=O)(=O)Nc2ccc3c(c2)CC(=O)N([C@H](C)CO)C[C@H](C)[C@H](CN(C)C(=O)Nc2c(C)noc2C)O3)cc1
- NOMO-1 viab: -9

C[C@H]1CN([C@@H](C)CO)C(=O)c2cc(NS(=O)(=O)c3cccs3)ccc2O[C@@H]1CN(C)C(=O)Nc1ccc(C(F)(F)F)cc1
- NOMO-1 viab: 5

C[C@H](CO)N1C[C@H](C)[C@H](CN(C)Cc2ccc3c(c2)OCO3)Oc2c(NC(=O)Nc3ccc(F)cc3)cccc2C1=O
- NOMO-1 viab: 55

C[C@@H]1CN([C@@H](C)CO)C(=O)c2cc(NC(=O)C3CC3)ccc2O[C@H]1CN(C)C(=O)Nc1ccc2c(c1)OCO2
- NOMO-1 viab: 18

C=C1[C@H]2CC[C@@]3(C)[C@H](c4ccoc4)OC(=O)C[C@]13O[C@H]1C[C@H](O)C(C)(C)[C@H](CC(=O)OC)[C@]12C
- NOMO-1 viab: 5

CCC(NC(=O)c1cc(OC)c(OC)c(OC)c1)C12CC3CC(CC(C3)C1)C2 (centres undefined)
- NOMO-1 viab: 15

C[C@H]1CN([C@@H](C)CO)C(=O)c2cccc(NC(=O)Nc3ccccc3)c2O[C@@H]1CN(C)Cc1ccc(C(=O)O)cc1
- NOMO-1 viab: 2

Cc1noc(C)c1NC(=O)Nc1ccc2c(c1)CC(=O)N([C@H](C)CO)C[C@@H](C)[C@H](CN(C)S(=O)(=O)c1ccc(Cl)cc1)O2
- NOMO-1 viab: -12

C[C@@H]1CN([C@H](C)CO)C(=O)c2cccc(NC(=O)CCCCCC(=O)Nc3ccccc3N)c2O[C@@H]1CN(C)Cc1ccc(Cl)c(Cl)c1
- NOMO-1 viab: 134*

O=C(CSc1nc(-c2ccccc2)c(-c2ccccc2)[nH]1)Nc1ccccc1F
- NOMO-1 viab: 44

O=C(Nc1ccc(S(=O)(=O)Nc2ncccn2)cc1)C1CCC1
- NOMO-1 viab: -11

Cc1ccc(S(=O)(=O)Nc2cccc3c2O[C@@H](CN(C)Cc2ccc(C(=O)O)cc2)[C@H](C)CN([C@@H](C)CO)C3=O)cc1
- NOMO-1 viab: -16

Cn1c(SCC(=O)Nc2cccc(C(F)(F)F)c2)nnc1-c1ccc(F)cc1
- NOMO-1 viab: 45

CC(=O)c1cccc(NC(=O)CSc2nnnn2C)c1
- NOMO-1 viab: -17

Cc1onc(-c2ccccc2)c1C(=O)NC1C(=O)N2[C@@H]1SC(C)(C)[C@@H]2C(=O)O (some centres undefined)
- NOMO-1 viab: 3

Cc1sc(NC(=S)NC(=O)Cc2cccc3ccccc23)c(C(N)=O)c1C
- NOMO-1 viab: 36

C[C@@H]1CN([C@H](C)CO)C(=O)c2cccc(NC(=O)Nc3ccc4c(c3)OCO4)c2O[C@@H]1CN(C)Cc1ccncc1
- NOMO-1 viab: -12

O=c1c(-c2nnnn2-c2ccccc2)c[nH]c2ccccc12
- NOMO-1 viab: 2

CC1CCC(C(C)C)C(=O)/C1=C/c1ccc(N(C)C)cc1 (centres undefined)
- NOMO-1 viab: 63

C[C@@H]1CN([C@@H](C)CO)C(=O)c2cc(NS(=O)(=O)c3ccc(F)cc3)ccc2O[C@@H]1CN(C)Cc1ccc(Cl)c(Cl)c1
- NOMO-1 viab: 110*

C[C@@H]1CN([C@@H](C)CO)C(=O)c2cc(NC(=O)Nc3cccc4ccccc34)ccc2O[C@@H]1CN(C)Cc1ccccc1
- NOMO-1 viab: 34

O/N=C1/C2CN3CCN(C2)CC1(Cc1ccccc1)C3
- NOMO-1 viab: 35

C[C@H]1CN([C@@H](C)CO)C(=O)Cc2cc(NS(=O)(=O)c3ccc(Cl)cc3)ccc2O[C@@H]1CN(C)C(=O)NC1CCCCC1
- NOMO-1 viab: 12

CNC[C@@H]1Oc2c(NC(=O)NC3CCCCC3)cccc2C(=O)N([C@H](C)CO)C[C@@H]1C
- NOMO-1 viab: 8

C[C@@H]1CN([C@@H](C)CO)C(=O)c2cc(NS(=O)(=O)c3cn(C)cn3)ccc2O[C@@H]1CN(C)C(=O)Nc1ccc2c(c1)OCO2
- NOMO-1 viab: 10

C[C@H]1CN([C@@H](C)CO)C(=O)Cc2cc(NS(C)(=O)=O)ccc2O[C@H]1CN(C)C(=O)Nc1ccc2c(c1)OCO2
- NOMO-1 viab: 25

COc1ccccc1-n1c(SCC(=O)N(c2ccccc2)c2ccccc2)nc2ccccc2c1=O
- NOMO-1 viab: 32

Cc1noc(C)c1S(=O)(=O)N(C)C[C@@H]1Oc2c(NC(=O)C3CCOCC3)cccc2C(=O)N([C@@H](C)CO)C[C@@H]1C
- NOMO-1 viab: -4

C[C@H](CO)N1C[C@H](C)[C@H](CN(C)S(=O)(=O)c2ccccc2)Oc2c(NC(=O)C3CC3)cccc2C1=O
- NOMO-1 viab: -12

C[C@@H]1CN([C@@H](C)CO)C(=O)Cc2cc(NC(=O)CCCN(C)C)ccc2O[C@@H]1CN(C)CC1CCCCC1
- NOMO-1 viab: 8

C[C@H]1CN([C@@H](C)CO)C(=O)c2cccc(NC(=O)CCCCCC(=O)Nc3ccccc3N)c2O[C@H]1CN(C)Cc1ccc(Cl)c(Cl)c1
- NOMO-1 viab: 120*

C[C@@H]1CN([C@@H](C)CO)C(=O)Cc2cc(NC(=O)c3ccncc3)ccc2O[C@@H]1CN(C)Cc1ccccc1
- NOMO-1 viab: 24

COc1ccc(NC(=O)Nc2cccc3c2O[C@H](CN(C)Cc2ccc(C(=O)Nc4ccccc4N)cc2)[C@H](C)CN([C@H](C)CO)C3=O)cc1
- NOMO-1 viab: 140*

CC(C)NC(=O)N(C)C[C@H]1Oc2c(NC(=O)C3CC3)cccc2C(=O)N([C@@H](C)CO)C[C@H]1C
- NOMO-1 viab: -17

C[C@H]1CN([C@@H](C)CO)C(=O)Cc2cc(N(C)C)ccc2O[C@H]1CN(C)S(=O)(=O)c1ccc(Cl)cc1
- NOMO-1 viab: 115*

CN(c1cccc(NC(=O)c2ccc(Cl)c(S(=O)(=O)Nc3ccccc3)c2)c1)S(C)(=O)=O
- NOMO-1 viab: -8

CC(=O)OCCSc1nc(N(C)C)nc(N(C)C)n1
- NOMO-1 viab: 12

Cc1ccc(C)c(NC(=O)C(Cc2ccccc2)N2C(=O)c3ccccc3C2=O)c1 (centres undefined)
- NOMO-1 viab: -2

Cc1noc(C)c1NC(=O)N(C)C[C@H]1OCCCC[C@@H](C)Oc2ccc(NC(=O)Nc3ccc(F)cc3)cc2C(=O)N([C@H](C)CO)C[C@@H]1C
- NOMO-1 viab: 32

In the list so far, these contain an NH in an aromatic ring.
O=C(CSc1nc(-c2ccccc2)c(-c2ccccc2)[nH]1)Nc1ccccc1F
- NOMO-1 viab: 44

O=c1c(-c2nnnn2-c2ccccc2)c[nH]c2ccccc12
- NOMO-1 viab: 2

Continuation.
C[C@H]1CN([C@@H](C)CO)C(=O)c2cc(NS(=O)(=O)c3cccs3)ccc2O[C@@H]1CN(C)Cc1ccncc1
- NOMO-1 viab: -4

C[C@@H]1CN([C@@H](C)CO)C(=O)c2cc(NC(=O)Nc3ccc(F)cc3)ccc2O[C@@H]1CN(C)C(=O)Nc1ccc(C(F)(F)F)cc1
- NOMO-1 viab: 105*

CN(Cc1cc2ccccc2[nH]c1=O)S(=O)(=O)c1ccccc1
- NOMO-1 viab: 10

COC(=O)c1cccc(NC(=O)CSc2nc(C)c3c(n2)CCCC3)c1
- NOMO-1 viab: 17

O=C(CSc1nc2sc3c(c2c(=O)[nH]1)CCCC3)Nc1ccc(Cl)cc1
- NOMO-1 viab: 22

CN(Cc1nc(-c2ccncc2)no1)S(=O)(=O)c1ccc(Cl)cc1
- NOMO-1 viab: 18

CC(C)NC(=O)Nc1ccc2c(c1)C(=O)N([C@@H](C)CO)C[C@H](C)[C@H](CN(C)C(=O)Nc1ccccc1)O2
- NOMO-1 viab: -4

Cc1ccc2nc(-c3ccc(NC(=O)COc4ccc([N+](=O)[O-])cc4)cc3)sc2c1
- NOMO-1 viab: 1

C[C@H]1CN([C@@H](C)CO)C(=O)Cc2cc(NS(=O)(=O)c3ccc(Cl)cc3)ccc2O[C@H]1CN(C)C(=O)Nc1ccc(C(F)(F)F)cc1
- NOMO-1 viab: 20

C[C@@H]1CN([C@H](C)CO)C(=O)c2cccc(NC(=O)Nc3cccc4ccccc34)c2O[C@H]1CN(C)S(=O)(=O)c1cn(C)cn1
- NOMO-1 viab: 22

CSc1cccc(NC(=O)CSc2nnc(-c3cccc(C)c3)n2C)c1
- NOMO-1 viab: 7

C[C@H](CO)N1C[C@H](C)[C@H](CN(C)S(=O)(=O)c2cn(C)cn2)Oc2ccc(NC(=O)Cn3cnnn3)cc2C1=O
- NOMO-1 viab: 17
